Screens as filed in PubChem.
RN4220 kill = kills Staphylococcus aureus RN4220 | S. aureus RN4220 growth, OD600, 16 h | inhibition, % (no concentration beside the values) | actives 0.33% (n = 330,000);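 active = z-score of -3 or lower and OD600 up to 0.18 on both plates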;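 also: plate controls were untreated cells for no effect and reference antibiotic for full effect; stock transfer was 100 nL into about 80 µL; one replicate is shown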
BJeLR viability = kills HRASV12-expressing BJeLR cells. inhibition, % (no concentration beside the values). AID 1554. BJeLR (HRASV12) viability, CellTiter-Glo ATP luminescence, 48 h; reference of the scale not given here. actives 0.17% (n = 300,000);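 active = replicate mean above 50%; inconclusive = above 50% but judged a plate artefact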;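 also: 50 nL library stock added to about 25 µL; numbers are from one replicate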
Mtb hypoxia rep = inhibitors of hypoxia-regulated fluorescent reporter in Mycobacterium tuberculosis; M. tuberculosis hypoxia-regulated fluorescent reporter, fluorescence; fluorescence inhibition, % (no concentration beside the values); actives 0.1% (n = 300,000); AID 1159583;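 active = 35 to 45% if threefold the growth effect, above 45% if 1.5-fold the growth effect; inactive = the rest, general growth blockers included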;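 also: wells of about 50 µL received 100 nL stock; 0% = vehicle wells and 100% = reference inhibitor wells; whole bacteria with a GFP reporter of the hypoxia response; strong numbers were not always called active; many hits fall short of the cut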
PrP UTR inh = suppresses PrP 5' UTR mRNA reporter expression; cell-based PrP 5' UTR mRNA reporter, plate reader; inhibition, % (concentration not given with the values); actives 0.35% (n = 340,000); AID 488862;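 active = every replicate at 50% or more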;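 also: 0 = median of the neutral control wells; tested in H4 reporter cells; numbers are from one replicate; inactives centre near -14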
Sa ugtP lethal = kills S. aureus RN4220 lacking UgtP; S. aureus RN4220 ugtP deletion, OD600 growth, 16 h; some inactives read as strong as hits; growth inhibition, % (test concentration not listed); actives 0.54% (n = 330,000);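 active = z-score under -3 and OD600 up to 0.15 on both plates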;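 also: plate controls were untreated wells for no effect and antibiotic for full effect; wells of about 80 µL received 100 nL stock; the first replicate is given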
Autofluor counter = compound fluorescence in toxin protease inhibitor counterscreen; actives 3.1% (n = 360,000); fluorescence intensity (no concentration beside the values); compound autofluorescence counterscreen, microsphere flow cytometry; hits give high values;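 active = at least 3 SD above the mean of all compounds, about 16000 in these data; inconclusive = too few beads counted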;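 also: 100 nL of 1 mM stock went into each well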
Mtb hypoxia rep growth = also measured in Mtb hypoxia rep; calls as there; growth inhibition, %; measured here: M. tuberculosis growth (absorbance);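 0% = vehicle and 100% = reference antibiotic; read after six days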
Active calls of the source: *; u = inconclusive; x = no result given.

Structure	RN4220 kill	Autofluor counter	Sa ugtP lethal	PrP UTR inh	BJeLR viability	Mtb hypoxia rep	Mtb hypoxia rep growth
CCC(c1nnnn1C(C)(C)C)N1CCN(c2cc(Cl)ccc2C)CC1 (stereo not drawn)	7.1	2147	24.7	-15.1	-1.9	x	x
Cc1nc(SCc2ccccc2)c([N+](=O)[O-])[nH]1	4.0	9556	-1.2	-29.8	0.3	6.9	-1.7
COc1ccc(OC)c(C(c2nnnn2Cc2ccco2)N2CCN(C)CC2)c1 (stereo not drawn)	6.1	2006	1.3	-3.4	0.6	12.6	6.2
O=C(/C=C/c1ccc(OC2CSC2)cc1)c1ccc(Cl)cc1	6.2	8641	2.7	-20.2	-2.4	4.8	-0.8
CC(C)(Oc1ccc(Cl)cc1)C(=O)NC1CCCCC1	2.7	u	4.6	-14.4	0.4	10.2	-6.9
CC1(C)CC(=O)c2sc(NC(=O)CN3CCCCC3)nc2C1	3.8	2931	7.5	-22.8	-12.2	5.9	6.1
CC(C)C(C(=O)NCc1ccco1)N(CC1CCCO1)C(=O)CNS(=O)(=O)c1ccc(F)cc1 (stereo not drawn)	3.0	3698	14.8	-46.4	-15.0	17.5	7.1
O=S(=O)(Nn1c(O)c(C=C2N=c3ccccc3=N2)sc1=S)c1ccccc1	x	4112	x	-35.7	-8.4	x	x
N=C1C(c2nc3ccccc3c(=O)[nH]2)=C(O)CN1CCO	0.5	4134	5.1	-4.7	7.5	x	x
CCCCn1c(=O)[nH]c(=O)c2c1nc(COc1ccc(C#N)cc1)n2CCC	-13.0	3024	-6.9	6.2	2.8	13.0	4.3
CC[C@@]1(C(=O)OC)N[C@H](CN(C)C(=O)Nc2ccc(F)cc2)[C@@H]2C(=O)N(Cc3ccccc3)C(=O)[C@@H]21	2.3	3669	0.2	70.2*	x	-3.9	3.8
COCCN1CCn2c(nc3cc(NC(=O)Cn4nc(C)c5ccccc5c4=O)ccc32)C1	3.3	4333	2.3	0.7	-4.1	11.5	-4.5
O=C1OC(c2ccc(F)cc2)=N/C1=C\C=C/c1ccccc1	3.1	3860	3.5	-7.3	-1.6	4.4	2.6
CN(C(=O)CN1C(=O)S/C(=C\c2ccc(Cl)cc2)C1=O)C1CCS(=O)(=O)C1 (stereo not drawn)	0.8	5489	-1.0	2.2	-3.2	1.0	-1.3
Cc1c(Br)ccc(NC(=O)COc2ccccc2C(N)=O)c1C	-3.8	4076	2.7	-22.6	6.1	-9.1	-5.9
O=C1N(Cc2cccnc2)C[C@@H]2C[C@@H](c3ccc(C(F)(F)F)cc3)N3CCC[C@@]123	-0.6	4070	2.3	-2.7	-6.6	7.3	4.6
CC1=CCC(C(=O)O)(C(=O)N/N=C/c2cccs2)C(c2ccc(F)cc2)C1 (stereo not drawn)	x	8017	x	-4.2	12.8	x	x
COc1ccc2cc(C)c3nnc(SCC(=O)Nc4nc(-c5ccccc5)cs4)n3c2c1	30.3	9798	14.5	-27.3	-13.0	8.2	1.5
COc1ccccc1C(=O)Nc1ccccc1N1CCN(S(C)(=O)=O)CC1	-11.5	3540	-2.5	-16.7	2.5	21.1	8.0
CCOc1ccccc1N=CC1=C(O)CC(c2ccccc2)CC1=O (stereo not drawn)	3.3	5975	3.6	1.9	7.6	12.6	3.4
O=C(NN=Cc1cccc(O)c1)c1ccc(NC(=O)c2cccc([N+](=O)[O-])c2)cc1	-6.5	x	3.4	x	x	-6.4	2.7
C#CCOCCOCCOCCNc1nc(N2CCN(C(=O)Cn3cc(CCCCN)nn3)CC2)nc(N2CCN(C(=O)C(CCCCN)n3cc(CCC(=O)O)nn3)CC2)n1 (stereo not drawn)	8.2	x	-1.1	x	x	17.5	8.2
CN(CC(=O)NC1CCCCCC1)S(=O)(=O)c1cnc[nH]1	-4.7	4071	-20.0	-18.5	-2.0	2.1	8.1
CCOc1cc(/C=N\NC(=O)OC)ccc1OC(=O)c1ccco1	x	3299	x	-3.2	-13.6	x	x
CCCC(=O)Nc1ccc(NCc2ccc(C)s2)cc1	1.2	3110	2.7	-1.3	-5.0	-2.7	-1.5

The list goes on; it opens with the 3 that closed the last part.
Structure	RN4220 kill	Autofluor counter	Sa ugtP lethal	PrP UTR inh	BJeLR viability	Mtb hypoxia rep	Mtb hypoxia rep growth
CN(CC(=O)NC1CCCCCC1)S(=O)(=O)c1cnc[nH]1	-4.7	4071	-20.0	-18.5	-2.0	2.1	8.1
CCOc1cc(/C=N\NC(=O)OC)ccc1OC(=O)c1ccco1	x	3299	x	-3.2	-13.6	x	x
CCCC(=O)Nc1ccc(NCc2ccc(C)s2)cc1	1.2	3110	2.7	-1.3	-5.0	-2.7	-1.5
CCCCn1nnnc1NCc1ccc(C)cc1	2.7	4277	4.7	-16.0	1.8	24.2	28.3
CCOC(=O)C1Cn2c(nc3c(c2=O)C2(CCCC2)Cc2ccccc2-3)S1 (stereo not drawn)	2.8	2230	12.2	-1.5	x	x	x
CC(C)c1ccc(N(C(=O)CNC(=O)c2ccco2)C(C(=O)NC2CCCC2)c2cccnc2)cc1 (stereo not drawn)	-0.7	3688	2.9	-6.3	-3.6	-5.5	8.1
O=C(O)C1=C[C@@H](c2ccc(F)cc2)C[C@@H](OCCCCO)O1	x	2997	x	-2.9	15.1	x	x
O=C1CS/C(=N/N=Cc2c[nH]c3ccccc23)N1	0.8	x	1.7	x	x	2.9	-2.0
COC(=O)C1=C(N)Oc2cc(C)n(Cc3cccnc3)c(=O)c2C1c1cccc(OC)c1OC (stereo not drawn)	7.8	3284	0.9	-2.2	-8.8	x	x
Cc1nnc(SCc2ccccc2)[nH]c1=O	1.6	3125	-1.3	-2.8	2.4	0.3	9.5
O=C(c1cccc(S(=O)(=O)N2CCCCC2)c1)N1CCOCC1	1.9	3162	-0.8	4.8	3.5	7.6	8.5
CCOc1ccc(OCc2ccc(C(=O)NN)o2)cc1	-1.3	3459	1.1	-33.0	-7.4	-4.0	-10.7
Cc1ccc(-c2c(C#N)c(N)n(-c3ccccc3)c(=O)c2C#N)cc1	9.2	2741	0.8	-25.8	5.2	x	x
CCn1c(SCC(=O)N2CCCCC2)nnc1-c1ccc(S(=O)(=O)N2CCN(C)CC2)cc1	5.9	16315*	5.9	-20.3	2.7	8.8	14.0
COc1ccc(N2C3=[N+](CCCC3)CC2(C)O)cc1 (stereo not drawn)	1.9	16662*	10.9	-25.4	11.0	6.6	6.8
COc1ccccc1/C=C/C=N/n1c(-c2ccccc2)n[nH]c1=S	x	4295	x	-35.4	2.5	x	x
COc1ccccc1CNS(=O)(=O)c1ccc(N2CCCC2)cc1Br	10.4	3780	2.8	-23.3	x	2.8	5.7
CC1CCCCN1CCn1c(=S)[nH]c2ncccc2c1=O (stereo not drawn)	1.3	4117	-1.6	-10.0	7.5	-0.4	4.0
O=C(CN1C(=O)C2C3CC(C(Br)C3Br)C2C1=O)N1CCOCC1 (stereo not drawn)	4.5	2593	6.5	-28.9	-22.6	1.2	2.4
CCC1C(C#N)=C(SC)NC2=C1C(=O)CC(C)(C)C2 (stereo not drawn)	7.2	15625	5.8	0.3	-1.8	-0.6	4.4
COC1CCN(C(=O)C2CCC(=O)N(C3CCCCCC3)C2)CC1 (stereo not drawn)	2.3	5633	11.6	-36.4	-5.3	3.0	8.0
NC(=O)c1ccc(NC(=O)COC(=O)c2c[nH]c3ccccc23)cc1	2.3	6378	6.9	-13.8	x	14.2	0.1
Cc1ccc(C(=O)Nc2cccc(NC(=O)c3ccc(C)c([N+](=O)[O-])c3)n2)cc1[N+](=O)[O-]	12.1	4003	-12.2	-12.2	0.4	6.0	0.4
CCC1C(=O)NCCN1C(=O)c1ccc(OC)c(OC2CCN(C(C)=O)CC2)c1 (stereo not drawn)	0.8	5860	2.4	-54.8	-9.2	1.8	10.2
O=C(c1ccc(F)cc1)C1CCN(Cc2ccccc2)CC1	3.3	5862	-1.9	-19.1	x	13.8	6.0
COC(=O)c1cccc2c1-c1ccccc1/C2=N/O	x	4697	x	-10.1	4.0	x	x
CCN(CCNC(=O)C1CCN(S(=O)(=O)c2cccc3cccnc23)CC1)c1ccccc1	-1.1	5066	7.6	-14.3	-2.6	x	x
O=C(CNC(=O)C1COc2ccccc2O1)NN=Cc1ccc(Br)cc1 (stereo not drawn)	5.0	x	6.1	x	x	0.5	-3.2
COc1cc(NC(=O)COC(=O)Cc2ccsc2)cc(OC)c1	-1.4	u	-3.0	6.2	x	-5.8	7.6
COc1ccc(-c2cc(C(=O)N3CCCCCC3)c3ccccc3n2)cc1	1.2	5905	1.1	-1.3	x	-9.7	-5.4
N#CCN1C(=S)N=C(Nc2cccc(Cl)c2)C12CCCCC2	-3.6	2386	7.2	-1.0	-4.2	x	x
O=C(NCc1ccccc1)N1CCN(c2ccccc2F)CC1	-3.9	4248	11.5	-27.1	3.4	x	x
COC(=O)c1ccc(NC(=O)CN2C(=O)NC3(CCC(C)CC3)C2=O)cc1 (stereo not drawn)	5.1	3962	0.4	-19.9	x	1.0	-2.7
O=C(Cn1nc(CNc2ccc(Cl)cc2)[n+]2c1CCCCC2)c1ccccc1	-5.2	9028	-11.1	-15.9	0.0	8.2	22.5
O=C1CCC(C(=O)OCC(=O)Nc2ccc(Cl)cc2C(F)(F)F)=NN1	1.9	u	2.6	-9.6	x	2.0	2.9
COC(=O)c1sc2cc(C(F)(F)F)cnc2c1-c1ccccn1	2.3	3329	0.6	-20.5	-0.6	2.8	1.0
CCC(=O)N1CCC(NC(=O)Nc2ccc(OC(F)(F)F)cc2)CC1	4.8	3343	-1.8	-12.2	x	18.7	14.3
CCOc1cc(/C=N/NC(=O)OC)ccc1OCCSc1ccc(Cl)cc1	x	2527	x	-9.4	2.8	x	x
CCc1ccc(S(=O)(=O)Nc2ccc(-c3ccc4nncn4n3)cc2)s1	4.8	x	-3.8	-12.4	8.9	-4.0	0.5
CC(=O)NC(C)c1ccc(Cl)c(Cl)c1 (stereo not drawn)	-1.7	10339	-4.2	-7.8	-2.5	-0.7	3.2
COC(=O)CCC(=O)NC(=S)Nc1ccc(S(=O)(=O)Nc2cc(OC)nc(OC)n2)cc1	2.6	2138	7.8	-20.1	2.7	3.0	9.1
O=C1C=C(c2cc3ccccc3s2)CCC1	16.6	3724	14.9	-6.2	6.3	20.2	10.0
Cc1ccc(C2=N/C(=C\N3CCCCC3)C(=O)O2)cc1	-2.4	15587	0.5	-56.0	-1.7	-0.7	-0.8
COc1ccc(N=c2oc3cc(O)ccc3cc2C(=O)Nc2ccccn2)cc1OC	-1.6	4465	-13.7	-20.4	-1.5	6.1	5.0
COc1ccccc1N(CC(=O)N1CCc2ccccc2C1)S(C)(=O)=O	4.8	4823	-3.9	-23.8	-5.5	6.6	5.9
COc1ccc(N(C(=O)COc2ccccc2)C2C=CS(=O)(=O)C2)cc1 (stereo not drawn)	4.3	11066	2.5	-43.5	-7.2	2.5	-1.5
O=C(Nc1ccc(F)cc1)OCCOc1ccc(Br)cc1	-2.3	4686	-7.1	-28.2	-13.8	6.3	-3.3
Cc1ccc(NC(=O)CSc2ccc(-c3ccc(-n4cccn4)cc3)nn2)c(C)c1	2.9	5723	5.0	-40.0	14.6	0.8	-15.7
O=S(=O)(Nc1nccs1)c1ccc(NS(=O)(=O)c2c(F)cc(F)c(Cl)c2F)cc1	5.1	3759	3.4	-23.3	x	23.0	14.9
COc1cc(C(c2c(C)[nH][nH]c2=O)c2c(C)[nH][nH]c2=O)cc([N+](=O)[O-])c1O	1.7	4590	6.5	-12.1	3.4	-0.6	-3.4
COc1ccccc1Nc1nc(NCCCCO)nc(N2CCCC2)n1	8.8	4716	4.1	-9.3	-5.0	3.3	11.9

As a short view, part of the list above.
Structure	RN4220 kill	Autofluor counter	Sa ugtP lethal	PrP UTR inh	BJeLR viability	Mtb hypoxia rep	Mtb hypoxia rep growth
COc1cc(NC(=O)COC(=O)Cc2ccsc2)cc(OC)c1	-1.4	u	-3.0	6.2	x	-5.8	7.6
COc1ccc(-c2cc(C(=O)N3CCCCCC3)c3ccccc3n2)cc1	1.2	5905	1.1	-1.3	x	-9.7	-5.4
